NPR1 antag: blocks ANP-stimulated signaling of human Npr1 receptor; HEK293 hNpr1 GloSensor cGMP, ANP-stimulated luminescence; 76,000 tested, 1.6% active; P16066; Potency, µM (top dose mostly 46.3 µM), for inactives: top-dose activity change, negative = inhibition, usual class: inhibitors; active = well fitted inhibition curve with a large enough effect; inconclusive = small, poorly fitted or top-dose-only effect; inactive = no such curve, though single readings can be large or run the other way;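 note: nearly all actives have a fitted effect of over 60% in size; nearly all hits also lower the signal before the agonist is added; a reference antagonist and vehicle were the controls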
Target sequence (P16066 whole entry, looked up): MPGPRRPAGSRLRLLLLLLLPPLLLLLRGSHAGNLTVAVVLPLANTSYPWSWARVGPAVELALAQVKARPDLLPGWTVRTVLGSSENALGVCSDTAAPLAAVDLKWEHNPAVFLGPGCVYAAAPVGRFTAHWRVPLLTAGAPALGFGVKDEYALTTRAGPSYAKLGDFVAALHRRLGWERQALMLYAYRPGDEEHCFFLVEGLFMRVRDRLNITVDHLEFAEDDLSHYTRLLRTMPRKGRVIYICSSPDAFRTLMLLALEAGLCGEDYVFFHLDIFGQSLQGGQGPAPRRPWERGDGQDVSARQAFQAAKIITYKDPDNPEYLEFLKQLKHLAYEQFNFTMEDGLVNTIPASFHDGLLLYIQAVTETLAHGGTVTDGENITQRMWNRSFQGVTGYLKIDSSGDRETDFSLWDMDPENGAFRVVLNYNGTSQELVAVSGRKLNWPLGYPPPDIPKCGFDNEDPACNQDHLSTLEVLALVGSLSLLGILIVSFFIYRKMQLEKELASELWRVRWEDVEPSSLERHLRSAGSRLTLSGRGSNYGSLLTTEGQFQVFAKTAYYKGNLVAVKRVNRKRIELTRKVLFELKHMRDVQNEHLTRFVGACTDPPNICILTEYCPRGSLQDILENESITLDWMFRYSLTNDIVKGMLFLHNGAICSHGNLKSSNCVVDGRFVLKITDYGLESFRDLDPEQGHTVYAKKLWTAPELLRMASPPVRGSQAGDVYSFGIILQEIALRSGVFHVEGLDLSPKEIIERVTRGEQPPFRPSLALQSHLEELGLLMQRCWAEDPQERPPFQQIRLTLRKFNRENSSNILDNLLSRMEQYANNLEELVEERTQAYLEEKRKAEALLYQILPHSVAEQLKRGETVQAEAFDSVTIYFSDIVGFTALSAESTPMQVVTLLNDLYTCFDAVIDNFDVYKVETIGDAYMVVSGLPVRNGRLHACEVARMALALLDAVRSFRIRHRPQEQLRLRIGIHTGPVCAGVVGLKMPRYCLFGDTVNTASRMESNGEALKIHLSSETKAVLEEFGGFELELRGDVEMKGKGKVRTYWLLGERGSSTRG
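HEK293 cells stably expressing human Npr1 and cGMP GloSensor pGS-40F, loaded 2 h with 2% GloSensor reagent, given compound 30 min at room temperature. Luminescence read before and 20 min after 0.1 nM hNppA.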
Starred values were filed as active, the others as inactive; ? = inconclusive; [ ] = another dose, or the depositor's remark. % is set by controls: 0 for no effect and ±100 for the full control effect; potency is the fitted concentration of half-maximal effect. Some of the compounds tested. The share of hits here may be higher or lower than overall.

#	mol	NPR1 antag
1	CC(C)(C)c1coc([C@@H]2COCCN2Cc2cnc3ccccc3c2)n1	?
2	O=C1NCCCCCCN(C(=O)C2CC=CC2)[C@H]2C[C@H](c3nc(Cc4ccccc4)no3)C[C@@H]12	-8%
3	c1cc(-c2cc3c(ccn3Cc3ccncc3)c(N3CCOCC3)n2)c2[nH]ncc2c1	-13%[70.6 µM]
4	Cc1nn(C)c(C)c1CCNC(=O)CCC[C@@H]1[C@H]2CCCN3CCC[C@@H](CN1Cc1ccccc1)[C@@H]23	-1%
5	CC1CCN(C(=O)CCC2(Cc3ccc4ccccc4c3)CCC(=O)N2)CC1 (configuration not stated)	4%
6	COc1ccc(NC(=O)Cn2c(=O)n(-c3ccccc3)c(=O)c3c2cc(C)n3C)c(OC)c1	0%
7	COc1ncccc1CNC[C@H]1O[C@@H]2C[C@@H](CC(=O)NCc3cnn(C)c3)O[C@@H]2[C@@H]1O	2%[70.6 µM]
8	C[C@H](c1onc(-c2ccc(Cl)cc2)c1C(=O)O)N(C)C	0%[70.6 µM]
9	Cc1[nH]c(=O)[nH]c(=O)c1CC(=O)N[C@@H]1COCC[C@@H]1OCc1ccccc1	3%
10	COc1ccccc1C(=O)N1CCCN(c2nnc3ccccn23)CC1	0%
11	CCc1cccc2c(C(CC(=O)N3CCc4ccccc4C3)c3cccc4c3OCO4)c[nH]c12 (configuration not stated)	-10%
12	COC(=O)CNC(=O)c1nc(-c2ccsc2)c2cnccn12	15%[70.6 µM]
13	CN(CC1CCOCC1)C(=O)c1cc(F)ccc1Cl	1%
14	Cc1ccc2oc([C@H]3CCN(Cc4ccc(N(C)C)cc4)C3)nc2c1	-20%[70.6 µM]
15	O=C(c1cccs1)N1CCC(O)(c2ccccc2)[C@H](N2CCCC2)C1 (some centres not stated)	5%

The last three records of the section before lead into the next.
#	mol	NPR1 antag
13	CN(CC1CCOCC1)C(=O)c1cc(F)ccc1Cl	1%
14	Cc1ccc2oc([C@H]3CCN(Cc4ccc(N(C)C)cc4)C3)nc2c1	-20%[70.6 µM]
15	O=C(c1cccs1)N1CCC(O)(c2ccccc2)[C@H](N2CCCC2)C1 (some centres not stated)	5%
16	CNC(=O)[C@@H]1C[C@H](Oc2cccnc2)CN1C(=O)c1ccc(OC)c(F)c1	2%
17	COc1cccc(C(=O)N2[C@@H]3CC[C@H]2CC(NC(=O)c2ccncc2)C3)c1 (some centres not stated)	1%
18	Cc1noc(-c2cn(C3CCN(C(=O)Cc4ccc(OC(F)(F)F)cc4)CC3)nn2)n1	-10%
19	CCCOc1ccccc1C(=O)N1CC[C@H](N(C)C)[C@H](CCC(=O)O)C1	4%
20	COc1cccc(C(=O)N2CCCN(c3cc(-c4ccc(C)c(C)c4)[nH]n3)CC2)c1OC	10µM*
21	O=C(NCc1ccc2c(c1)OCO2)c1nc(-c2ccsc2)c2ccccn12	22%
22	COCC(=O)N(C1CCOCC1)C1CCN(Cc2cccnc2)CC1	3%
23	Cc1cc(C(=O)N2CCCN(S(C)(=O)=O)C(c3ccccc3)CC(=O)NCC2)nn1C (configuration not stated)	3%
24	CCc1noc(-c2cccn3c(CNC(=O)Cc4cccc(OC)c4)nnc23)n1	3%
25	CCCN(CC1CCOC1)C(=O)Nc1cccc(C(F)(F)F)c1 (configuration not stated)	1%
26	CCOc1ccccc1NC(=O)Cn1c(N2CCOCC2)nc(CC)cc1=O	1%
27	O=C(NCCc1cnc[nH]1)c1nc(-c2ccccc2)cc2[nH]ccc12	-13%[70.6 µM]
28	COCCN1C(=O)[C@@H]2C[C@@H](CN2Cc2ccc(C#N)cc2)Oc2ccccc21	-11%[70.6 µM]
29	COCCOc1cc(=O)n2c(c1C(=O)NCc1ccc(F)cc1)CCOCC2	-8%
30	CCC(NC(=O)c1cc(OC)ccc1OC1CCN(C(C)=O)CC1)c1ccncc1 (configuration not stated)	2%
31	O=C(Cc1ccsc1)N1CCC2(CC1)CC(N(Cc1ccccc1)C1CC1)CCO2 (configuration not stated)	-2%
32	Cc1cc2nc3n(c(=O)c2n1CC(=O)Nc1ccc(Cl)cc1)CCCCC3	0%
33	O=C(Nc1ccc(Cl)cc1)c1cc2n(n1)CC(c1ccc3c(c1)OCO3)OC2 (configuration not stated)	13µM*
34	Cc1ccsc1C(=O)N1CCC(N2C(=O)C(OCC3CC3)C23CCCCC3)CC1 (configuration not stated)	4%
35	COc1ccc(CN2CC(OCc3cccnc3)CN(C(=O)c3csc(C)n3)CC2=O)cc1 (configuration not stated)	2%
36	Cc1ncc2c(c1CNC(=O)CCn1c(=O)[nH]c3ccccc31)CCNC2	3%
37	COc1cccc(CN2CCc3c(cc(C(=O)NCCN4CCCCC4)n3C)C2)c1	0%
38	Cc1nnc2n1CCC(NC(=O)NCCc1ccccc1)CC2 (configuration not stated)	1%
39	Cc1cnc(CC2CCCN(S(=O)(=O)c3ccc4c(c3)OCCO4)C2)n1C(C)C (configuration not stated)	2%
40	NCCO[C@H]1C[C@@H](O)C12CCN(C(=O)c1ccc(=O)[nH]c1)CC2	5%
41	COCC1CN(S(=O)(=O)c2cccc(C#N)c2)CC12CCNCC2 (configuration not stated)	1%
42	CCN(CC)C(=O)N1CCC(n2c(C)cnc2C2CCOCC2)CC1	2%
43	CC(C)N[C@@H]1CC[C@@H]1NC(=O)c1cc2c(C(F)(F)F)nn(C)c2s1	7%
44	COc1ccc(CC(=O)N2CCC(n3c(=O)[nH]c4ccccc43)CC2)cc1	-14%
45	CCS(=O)(=O)N[C@@H]1CN(Cc2ccccc2)C[C@H]1CN(C)C	2%
46	COC(=O)N1CCC2(CC1)C(=O)NCN2Cc1ccc(Cl)cc1	19%
47	CCOc1ccc(OCC)c(Nc2ncncc2-c2nc(-c3ccccc3)no2)c1	2%
48	O=C1CC(c2ccccc2)N(C(=O)C2CCCCC2)CCCCCCN1 (configuration not stated)	-2%
49	COc1ccc(C(=O)N[C@H]2CO[C@H]3[C@@H]2OC[C@@H]3n2cc(-c3ccccn3)nn2)cc1	-30%[70.6 µM]
50	Cc1c(CC(=O)NC(C)C)c2c(n1Cc1ccc(F)cc1)CCCC2=O	-1%
51	O=C(Nc1ccc2c(c1)OCCO2)N1CCCCCC1CN1CCOCC1 (configuration not stated)	-1%
52	Clc1ccc(COCCn2ccnc2-c2cc3n(n2)CCNC3)cc1	-1%
53	COc1ccc2cc(CN3CCC(OC)CC3)c(-c3cccc(C)c3)nc2c1	-6%
54	CC(C)c1nnc(CN2CCOc3c(O)cc(-c4cccc(Cl)c4)cc3C2)o1	1%
55	COc1ccc(N2CCN(c3nc(C(=O)NCc4ccccc4C)cs3)CC2)cc1	-28%
56	COCCNC(=O)C[C@@H]1O[C@H](CNC(=O)Nc2ccccc2)[C@@H](O)[C@H]1O	-2%[70.6 µM]
57	Cc1ccc(C(=O)N2CCCCCNC(=O)CC2c2ccccc2)s1 (configuration not stated)	1%
58	O=C(CC(c1ccccc1)c1ccccc1Cl)N(Cc1cccnc1)C1CC1 (configuration not stated)	-26%
59	CCN(CC)C(=O)[C@@H]1C[C@H](NC(=O)COC)CN1Cc1ccsc1	-1%
60	CN1Cc2ncnc(N3CCN(Cc4ccccc4)CC3)c2CN(C2CCC2)C1=O	-1%

Quoted at random: 2 compounds from above
#	mol	NPR1 antag
46	COC(=O)N1CCC2(CC1)C(=O)NCN2Cc1ccc(Cl)cc1	19%
49	COc1ccc(C(=O)N[C@H]2CO[C@H]3[C@@H]2OC[C@@H]3n2cc(-c3ccccn3)nn2)cc1	-30%[70.6 µM]

(more compounds)
#	mol	NPR1 antag
61	COC1CCC(C(=O)NCC2COc3ncncc3C(=O)N2Cc2ccccc2)CC1 (configuration not stated)	4%[70.6 µM]
62	COc1cccc(-c2ccc(-c3nc(C4CCOC4)no3)o2)c1 (configuration not stated)	-20%
63	Cc1ccc(C)c(C(=O)N2CCC(n3cnnc3-c3ccccc3)CC2)c1	-1%
64	Cc1cc(C2CCCN2C(=O)c2ccc(F)c(F)c2)on1 (configuration not stated)	2%
65	CNC(=O)c1cccc(-c2cnc3[nH]cc(CC(=O)NCC(C)C)c3c2)c1	1%[70.6 µM]
66	CC[C@H]1CN(C(=O)Nc2ccccc2)CC[C@H]1CC(=O)Nc1ccccc1	-1%[70.6 µM]
67	O=C(CCc1ccc(O)cc1)N1CC[C@H](N2CCOCC2)[C@H](CCCO)C1	2%
68	Cc1ccc(C(=O)N2CCC3(CC2)N=C(c2ccc(Cl)cc2)NO3)cc1F	-26%
69	O=C(c1ccco1)N1CCN(C(=O)N2CC3CC(C2)[C@H]2CCCC(=O)N2C3)CC1 (some centres not stated)	3%
70	CN(Cc1ccc(F)cc1)C(=O)Cc1ccc(F)cc1	6%[70.6 µM]
71	Nc1nc(C2CC(NC(=O)c3ccc(CO)cc3)C2)cc(=O)[nH]1 (configuration not stated)	7%
72	Cc1ccc(-c2ncc(C(=O)N3CCCCC3CN)c(=O)[nH]2)cc1 (configuration not stated)	5%
73	CCCN1CCN(C(=O)c2ccc3c(c2)n(CC)c(=O)c2ccnn23)CC1	6%
74	CCc1noc(-c2cccn3c(CNC(=O)Cc4ccccc4OC)nnc23)n1	-3%
75	COc1ccc(NC(=O)c2cccc3c2CCN3C(=O)c2ccc(F)cc2)cc1	3%
76	Cc1cc(C(=O)N2CCCn3ccnc3C2c2ccccc2)n(C)n1 (configuration not stated)	0%
77	COc1ccc(-c2cc(N3CCCN(C(=O)c4ccc(C(C)(C)C)cc4)CC3)n[nH]2)cc1	-1%
78	O=C(N[C@@H]1CCN(C(=O)c2ccc(CO)cc2)C[C@H]1O)c1cccnc1	3%
79	COCCNc1ncc(-c2cccc(N)c2)c2c1OCC2	-17%[70.6 µM]
80	CC(=O)Nc1ccc(CN2CCN(Cc3ccccc3)C(CCO)C2)cc1 (configuration not stated)	0%
81	COc1cccc(CN2CCN(c3ncccc3Cl)CC2CCO)c1 (configuration not stated)	-3%
82	Cc1cnc(C(=O)NC2C[C@H]3CC[C@@H](C2)N3C(=O)c2ccc(F)cc2)cn1 (some centres not stated)	4%
83	O=C(CCc1ccsc1)N1CCc2ncnc(NC3CCC3)c2CC1	16%
84	CCN1c2cc(C(=O)Nc3ccc(Oc4ccccc4)cc3)ccc2C(=O)N2CCCCC21 (configuration not stated)	-9%
85	CCC1(N2CCN(S(=O)(=O)c3cccc(C#N)c3)CC2)CCN(C(=O)C(C)C)C1 (configuration not stated)	-7%
86	O=C1[C@@H]2C[C@@H](CN2C2COC2)Oc2ccccc2N1Cc1ccc(OC(F)(F)F)cc1	-16%[70.6 µM]
87	O=C(C1c2ccccc2CC(=O)N1Cc1ccccc1)N1CCN(c2ccccn2)CC1 (configuration not stated)	-12%
88	CCNC(=O)N1CCC(c2nnc(CN3CCCC3)n2CC)CC1	2%
89	CNC(=O)c1ccc(CN2CCCC(Nc3ccc(F)cc3)C2)o1 (configuration not stated)	-3%
90	COCC(=O)N[C@H]1C[C@@H](CO)N(Cc2ccc(Br)o2)C1	4%
91	O=C1NCCCCCN(C(=O)c2ccncc2)[C@H]2CCC[C@@H]12	1%
92	O=C(c1ccc(F)cc1)N1CCCC(Cc2nc(C3CCOCC3)no2)C1 (configuration not stated)	16%
93	Cc1cc(C[C@@H]2COC[C@@H]2NC(=O)c2cnc(Nc3ccccc3)nc2)on1	2%
94	O=C(CCC1CCCN(S(=O)(=O)c2cccc(F)c2)C1)N1CCc2ccccc2C1 (configuration not stated)	-12%
95	CN1C[C@@H](NC(=O)c2ccccc2)C[C@H]1c1nc(-c2ccccc2)no1	-7%[70.6 µM]
96	CCc1ccc(C2CC(C(=O)NCc3ccccc3)CN(C(=O)c3ccoc3)C2)cc1 (configuration not stated)	-18%
97	O=C(CCc1nc2ccccc2s1)NC1CCc2n[nH]c(=O)n2CC1 (configuration not stated)	-1%
98	CCc1nnc(CN(C)C(=O)c2cnc(-c3ccc(C)cc3)[nH]c2=O)o1	11%
99	CC(C)NC(=O)NC[C@H]1O[C@@H](CO)[C@@H](O)[C@H]1N(C)CCc1ccccn1	-2%
100	Cc1cccc(CN2CCCC(O)(CN3CCC(C)CC3)C2=O)c1 (configuration not stated)	2%
101	Cc1cccc(C(=O)N2CCC[C@H]2c2nc(-c3ccccc3)no2)c1	-9%
102	CN1C[C@@H](NC(=O)C2CCCCC2)C[C@H]1c1nc(-c2ccc(Cl)cc2)no1	-3%[70.6 µM]
103	Cc1ccc(NC(=O)N2CC(C(=O)N(C)C)C3(CCOCC3)C2)cc1 (configuration not stated)	-5%
104	O=C(NCCn1cccc1-c1nc(-c2ccc3c(c2)OCO3)no1)c1ccccc1Cl	-2%
105	O=C(CCN1CCCCO1)N1CCCn2nc(C(O)C3CCC3)cc2C1 (configuration not stated)	-5%
106	CC(C)(C)n1nnnc1C1CC2(CCOCC2)C(=O)N1CCc1c[nH]c2ccccc12 (configuration not stated)	-7%
107	CN(C)S(=O)(=O)N1C[C@H]2OC(=O)N(CCc3cccc(Cl)c3)[C@H]2C1	-2%
108	Cc1cc(NC(=O)CC[C@H]2NC(=O)c3ccccc3NC2=O)nn1C	0%
109	COc1ccc2nc(CO[C@H]3CN(Cc4ccc(OC)nc4)C[C@H]3F)[nH]c2c1	-1%[70.6 µM]
110	CCc1noc([C@@H]2CC(F)(F)CN2C(=O)c2ccc3nc[nH]c3c2)n1	10%
111	COCC1CN(C)CC12CCN(Cc1cc(C)nn1C)CC2 (configuration not stated)	-1%
112	COCCN1C(=O)CS(=O)(=O)C12CCN(C(=O)c1ccc(C)cc1C)CC2	-13%

Given with each value named: 2 of the compounds above
[46] COC(=O)N1CCC2(CC1)C(=O)NCN2Cc1ccc(Cl)cc1
- NPR1 antag = 19%
[83] O=C(CCc1ccsc1)N1CCc2ncnc(NC3CCC3)c2CC1
- NPR1 antag = 16%

Source: PubChem BioAssay
